Bioassay records from PubChem.
CtBP-E1A blk: blocks the CtBP interaction with E1A. AlphaScreen GST-E1A/His-CtBP binding, 1536-well; stronger effect = lower value; control for the full effect not named in the record. activity change, % (no concentration beside the values). 340,000 tested, 0.49% active. AID 651724; in the data active means activity change below about -65%; inconclusive means about -30% to -65%; inactive means above about -30%; also: % is scaled to controls: 0 for no effect and ±100 for the full control effect; compound concentration not given in the record
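Protein mix (5X: 125 nM each GST-E1A, His-CtBP) was incubated with pinned compound 2 h at 37 deg C in dark, in 50 mM Tris pH 8.0 buffer with 300 mM NaCl. Glutathione donor and nickel acceptor beads followed; AlphaScreen signal read after 1 h.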
gsp agonist: activates gsp, the McCune-Albright syndrome mutation; gsp mutant cells, cAMP HTRF, 30 min; control for the full effect not named in the record; AID 624287; 340,000 tested, 0.13% active; Potency, µM (titrated, usually from 76.9 µM), inactives show at the top dose activation (cAMP increase), usual class: activators; active = well fitted activation curve with a large enough effect; inconclusive = small, poorly fitted or top-dose-only effect, or another doubt; inactive = no such curve, though single readings can be large or run the other way; cell line not stated here;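 also: phosphodiesterase inhibitor Ro 20-1724 added with compounds to block cAMP breakdown; potency is read from the fitted curve at half-maximal effect; nearly all actives have a fitted effect of over 60% in size; about a fifth of the inactives were tested at one dose only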
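Cells in DMEM/10% FBS with G418 were pretreated with compounds in DMSO plus […] (300 uM stock) for 30 min at 37C. cAMP was measured by HTRF (cAMP-d2 plus anti-cAMP antibody-K) after 30 min at room temperature.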
gsp antag: antagonists of gsp mutant (McCune-Albright syndrome). Potency, µM (doses to about 76.9 µM), for the others: at the top dose activity change, negative = inhibition, most hits filed as inhibitors. 340,000 tested, 0.4% active. gsp-mutant cells, cAMP HTRF, 30 min; control for the full effect not named in the record; active = falling curve of any shape with a large fitted effect; inconclusive = falling curve, mostly with a smaller effect; inactive = flat or rising curve; cell line not stated here;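 also: intracellular cAMP measured with PDE inhibitor Ro 20-1724 present during compound exposure; potency is read from the fitted curve at half-maximal effect; % is scaled to controls: 0 for no effect and ±100 for the full control effect; nearly all actives have a fitted effect of over 65% in size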
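G418-selected cells were plated in DMEM/10% FBS for 16-24 h at 37C, then treated with compounds plus the PDE inhibitor […] (300 uM solution added) for 30 min at 37C. Intracellular cAMP was measured by HTRF after 30 min lysis at room temperature.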
Menin-MLL FL inh: inhibitors of human menin-MLL interaction, wild-type MLL peptide; Fluorescence polarization, fluorescein-MLL peptide displacement from menin; FP activity change, % at 61.4 µM; 290,000 tested, under 10 active; AID 1766; inconclusive = falling polarisation curve, or a change in total fluorescence; inactive = total fluorescence flat and polarisation flat or rising; no compound was filed as active; the % refers to the polarisation; negative = inhibition;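 also: % of control where 0% means no effect; inhibitors lower the polarisation; unlabelled MLL peptide was the positive control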
TRPV1 potentiator: potentiators of human vanilloid receptor 1 (TRPV1); potentiation, % at 8.33 µM; 320,000 tested, 0.02% active; TRPV1-expressing cells, Fluo-8 calcium influx, capsaicin EC20 potentiation; host cell line not named in the record; control for the full effect not named in the record; AID 540277; active means potentiation above 80%; inconclusive means 30% to 80%; inactive means below 30%; also: 0% is about no effect
Target sequence (Q8NER1 whole entry, looked up): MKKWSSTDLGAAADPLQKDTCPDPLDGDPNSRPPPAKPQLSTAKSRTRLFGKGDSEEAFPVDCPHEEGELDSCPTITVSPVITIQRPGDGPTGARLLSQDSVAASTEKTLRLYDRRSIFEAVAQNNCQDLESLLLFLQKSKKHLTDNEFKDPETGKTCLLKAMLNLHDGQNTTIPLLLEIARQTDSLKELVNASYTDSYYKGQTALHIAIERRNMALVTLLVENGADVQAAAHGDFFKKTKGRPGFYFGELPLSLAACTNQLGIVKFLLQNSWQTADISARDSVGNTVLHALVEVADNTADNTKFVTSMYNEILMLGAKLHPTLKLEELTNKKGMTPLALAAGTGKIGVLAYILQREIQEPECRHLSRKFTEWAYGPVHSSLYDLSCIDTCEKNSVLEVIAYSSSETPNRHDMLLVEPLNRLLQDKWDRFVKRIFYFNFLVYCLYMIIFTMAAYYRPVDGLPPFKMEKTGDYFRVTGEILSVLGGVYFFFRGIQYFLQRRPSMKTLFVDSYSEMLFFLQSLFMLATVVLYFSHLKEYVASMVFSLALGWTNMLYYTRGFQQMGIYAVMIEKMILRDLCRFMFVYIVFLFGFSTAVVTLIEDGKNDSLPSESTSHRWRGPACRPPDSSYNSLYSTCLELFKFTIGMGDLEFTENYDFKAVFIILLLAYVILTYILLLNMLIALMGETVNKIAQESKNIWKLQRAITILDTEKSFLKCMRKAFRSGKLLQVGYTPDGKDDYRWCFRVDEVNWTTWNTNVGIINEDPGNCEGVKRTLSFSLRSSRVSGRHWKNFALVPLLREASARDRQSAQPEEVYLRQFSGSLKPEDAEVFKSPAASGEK
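TRPV1-expressing cells were cultured overnight at 35.5C and loaded with Fluo-8 calcium dye for 40 to 90 min at room temperature. After a 10 s baseline, compound was added and calcium influx was read kinetically for 3 min (ex 480/em 520 nm).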
ClpP mod: qHTS Assay for Activators of ClpP. 340,000 tested, 1.9% active. Potency, µM (doses to about 57.5 µM), without a hit: top-dose activity change, negative = active. purified B. subtilis ClpP, FRET peptide cleavage, 20 min. AID 651965, 2013; active = well fitted falling curve with a large enough effect; inconclusive = small, poorly fitted or top-dose-only effect; inactive = no such curve, though single readings can be large or run the other way; also: potency is read from the fitted curve at half-maximal effect; the source files actives as falling curves though it sought activators and does not explain the sign; nearly all actives have a fitted effect of over 65% in size; many hits overshoot -100%
Target sequence (P80244 whole entry, looked up): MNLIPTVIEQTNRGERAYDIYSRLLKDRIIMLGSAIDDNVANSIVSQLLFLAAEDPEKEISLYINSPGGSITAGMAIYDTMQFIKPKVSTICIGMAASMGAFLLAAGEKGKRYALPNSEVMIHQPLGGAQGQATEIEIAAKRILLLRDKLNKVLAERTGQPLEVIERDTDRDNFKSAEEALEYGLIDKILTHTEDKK
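Buffer: 100 mM Tris/HCl pH8, 100 mM KCl, 0.05% low protease BSA, 2.5% glycerol, 0.01% Tween-20. ClpP 10 microg/mL final; 20 min RT; delta FRET normalized to ADEP and DMSO controls.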
Sfp PPTase inh: inhibitors of Bacillus subtilis Sfp phosphopantetheinyl transferase | Potency, µM, inactives show max response, negative = inhibition, actives largely listed as inhibitors | AID 1490 | Biochemical Sfp PPTase activity, qHTS | 310,000 tested, 3.5% active | Q9F4F7; active = well fitted inhibition curve with a large enough effect; inconclusive = small, poorly fitted or top-dose-only effect, or another doubt; inactive = no such curve, though single readings can be large or run the other way;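 also: the enzyme is Sfp with the accession as filed and its product quenches rhodamine fluorescence; potency is read from the fitted curve at half-maximal effect; 0% = enzyme reaction without inhibitor and -100% = no enzyme wells; top concentration of the series not given in the record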
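Fluorescence-quenching assay with 15 nM Sfp, 5 uM rhodamine-CoA and 12.5 uM BHQ-2-labelled ybbR peptide in pH 7.6 Hepes/MgCl2 buffer. Enzyme was pre-incubated with compound for 15 min at room temperature. Rate was taken from the 30-min fluorescence change (525/598 nm).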
* = called active by the depositor; ? = inconclusive; . = no result given; [ ] = remark or other dose.

Every second line gives: TRPV1 potentiator	gsp agonist	ClpP mod	Menin-MLL FL inh	CtBP-E1A blk	gsp antag	Sfp PPTase inh
> CCN1CCN(CCCN(Cc2ccco2)C(=S)Nc2ccc(C)c(Cl)c2)CC1
→ -12.5	-44.7%	.	-1.7	-5.3	-4.0%	-37.6%
> Clc1ccc(-n2nnc(-c3cccnc3Cl)n2)cc1Cl
→ 12.2	10.2%	-1.5%	-5.8	-6.9	2.8%	1.7%
> CCOC(=O)C(=NCCCN(C)C)NNc1ccc(Br)cc1
→ 0.6	16.3%	-3.0%	-0.1	.	-18.1%	17.5%
> O=C(C[n+]1ccc(-c2nnc3n2CCCCC3)cc1)c1ccc(Cl)cc1
→ 6.0	-9.0%[15.4 µM]	-2.7%	3.5	-0.2	0.2%	-11.2%
> COc1ccc(C(=O)c2ccsc2N)cc1
→ 2.6	18.7%[15.4 µM]	.	9.2	-9.9	4.2%	1.0%
> CCc1ccc(OCC(=O)Nc2cc(S(=O)(=O)CC)ccc2O)cc1
→ 5.8	-34.6%[inhibitor]	-1.6%	0.8	-4.8	-15.2%	14.2%
> O=C(NCc1ccco1)C1CCCN1C(=O)Nc1ccc(Br)cc1 (stereo not given)
→ -4.3	1.4%[15.4 µM]	.	6.3	0.6	7.5%	16.8%
> CCOc1ccc(C(=O)Nn2cnnc2)cc1
→ 4.1	23.4%	0.0%	1.5	4.1	5.3%	-0.8%
> CC(C)(C)c1ccc(/C=N/Nc2nncn2N)cc1
→ -0.2	-17.0%[15.4 µM]	-8.1%	-0.6	-17.6	7.4%	-26.5%
> O=C(NC(N1CCCCCC1)C(Cl)(Cl)Cl)c1ccccc1Cl (stereo not given)
→ 6.4	-36.1%[inhibitor]	0.6%	4.6	1.1	-8.7%	1.7%

Every second line gives: TRPV1 potentiator	gsp agonist	ClpP mod	Menin-MLL FL inh	CtBP-E1A blk	gsp antag	Sfp PPTase inh
> Cc1cccc(C(=O)NNS(=O)(=O)c2ccc(F)cc2)c1O
→ -3.8	-0.6%[15.4 µM]	-4.6%	2.2	-5.2	0.5%	1.3%
> O=C(CC1SC(N2CCCCC2)=NC1=O)Nc1cccc(C(=O)N2CCCC(C(F)(F)F)C2)c1 (stereo not given)
→ .	-23.7%	-0.3%	.	4.9	7.6%	.
> Oc1ccc(-c2nccc(-c3ccc(Cl)cc3Cl)n2)cc1
→ -11.2	-5.2%	.	-1.0	-18.5	11.3%	4.0%
> Cc1ccc(NC(=O)Nn2cnnc2)cc1
→ 1.9	13.5%	-1.9%	-1.1	-13.5	6.9%	0.6%
> COc1ccc(C2N=C(N)N=C(N)N2c2ccccc2)cc1OC (stereo not given)
→ 6.8	-27.9%	0.3%	-0.6	-0.1	11.8%	2.0%
> O=C1c2ccccc2C(=O)N1CCCON1C(=O)c2ccccc2C1=O
→ 19.4	22.5%	-1.4%	-1.4	3.0	1.0%	3.7%
> N#CC1=C(N)OC2=C(C(=O)CCC2)C1c1ccc(OC(=O)N2CCOCC2)cc1 (stereo not given)
→ -1.6	-6.9%	-0.8%	3.3	2.9	5.9%	6.7%
> CCN1CCN(c2ccc(NC(=O)c3ccco3)cc2Cl)CC1
→ -1.2	29.1%	.	0.9	3.0	6.4%	9.3%
> O=C(/C=C/c1ccc(Br)o1)OCc1ccccc1
→ -5.1	-11.8%	-1.9%	1.8	22.2	-8.2%	-11.2%
> O=C(OCn1nnc2ccccc2c1=O)C1COc2ccccc2O1 (stereo not given)
→ 0.6	-23.2%	-1.5%	6.0	0.0	-8.1%	20.0%

Every second line gives: TRPV1 potentiator	gsp agonist	ClpP mod	Menin-MLL FL inh	CtBP-E1A blk	gsp antag	Sfp PPTase inh
> CCOC(=O)c1ccc(NC(=S)NC(=O)COc2ccccc2)cc1
→ 2.8	?	-1.1%	3.3	5.3	-14.4%	?
> Fc1c(F)c(F)c(N/N=C/c2c[nH]c3ccccc23)c(F)c1F
→ 1.1	-4.6%	2.2%	2.2	0.4	5.9%	2.5%
> CCOC(=O)c1cc(-c2ccccc2)nn1Cc1cc(C)no1
→ 18.9	.	-3.7%	.	14.3	-7.7%	.
> CN1C(=O)C2(OCCCO2)c2ccccc21
→ -3.7	-3.4%	-1.1%	-1.1	.	1.3%	20.6%
> Cn1c(=O)c2c(nc(N3CCOCC3)n2CCc2ccccc2)n(C)c1=O
→ ?	2.0%	-4.1%	-2.6	.	-2.2%	-8.3%
> CN(Cc1cnn(-c2ccc(F)cc2)c1)Cc1nc(Cc2ccccc2)no1
→ -12.7	?	0.0%	3.7	4.9	2.7%	4.7%
> CCN(CC)C(=O)c1cccc(NC(=O)c2cc(-c3ccccn3)nc3ccccc23)c1
→ -0.8	?	-1.6%	.	-5.2	-13.3%	.
> COc1ccc(N2C(=O)[C@@H]3Cc4ccccc4CN3C2=O)cc1
→ -2.5	-0.6%	-3.2%	2.6	-0.3	4.5%	8.0%
> C[C@@H]1CC[C@H](O)/C=C/C(=O)O[C@H](C)CC[C@H](O)/C=C/C(=O)O1
→ -3.6	-27.8%	-3.5%	2.2	10.4	-2.1%	4.1%
> CCc1noc(C)c1C(=O)Nc1nc2ccc(F)cc2s1
→ -19.0	20.8%[15.4 µM]	.	.	-1.2	-14.5%	.

Every second line gives: TRPV1 potentiator	gsp agonist	ClpP mod	Menin-MLL FL inh	CtBP-E1A blk	gsp antag	Sfp PPTase inh
> CC(C)Oc1cccc(C(=O)NC(=S)Nc2cccnc2)c1
→ -3.8	8.3%	2.1%	3.4	-0.7	-13.1%	-19.9%
> CCC1(C)Cc2ccccc2-c2nc3n(c(=O)c21)CCS3 (stereo not given)
→ -13.8	16.9%	?	6.5	10.9	7.6%	4.1%
> COc1cc2c(cc1NC(=S)Nc1cccc(C(F)(F)F)c1)oc1ccccc12
→ 25.5	-36.3%[inhibitor]	31.6µM*	4.7	-7.5	-14.5%	-14.0%
> COCCN(Cc1cc2ccc(C)cc2[nH]c1=O)S(=O)(=O)c1ccccc1
→ 8.1	19.4%[15.4 µM]	.	-0.3	4.7	.	7.0%
> COc1ccccc1-c1cc(C(F)(F)F)nc(N2CCN(c3ccc(F)cc3)CC2)n1
→ 28.5	-10.5%	-0.7%	-0.9	13.3	12.0%	-6.5%
> Cc1cccc(C)c1NC(=O)CNC(=O)C1COc2ccccc2O1 (stereo not given)
→ -7.2	?	0.8%	.	.	4.9%	.
> COc1ccc(NS(=O)(=O)c2ccc(N)c(C(=O)O)c2)cc1
→ 25.4	?	-3.7%	0.1	3.3	1.3%	12.5%
> CN(C)S(=O)(=O)c1cccc(NC(=S)NC23CC4CC(CC(C4)C2)C3)c1
→ 9.7	-7.0%	.	.	0.4	?	16.4%
> CN(CCCC(=O)N1CCN(c2ncccn2)CC1)S(=O)(=O)c1ccc(F)cc1
→ .	-42.2%	4.8%	.	.	0.5%	.
> Cc1ccc(-n2nnnc2SCC(=O)N(CC(C)C)c2c(N)n(CC(C)C)c(=O)[nH]c2=O)cc1
→ 1.6	?	.	-0.1	-12.4	4.3%	5.2%

Every second line gives: TRPV1 potentiator	gsp agonist	ClpP mod	Menin-MLL FL inh	CtBP-E1A blk	gsp antag	Sfp PPTase inh
> COc1cccc(NC(=O)CCCOc2cc(=O)n(C)c3ccccc23)c1
→ -3.9	-0.8%	5.1%	3.9	-7.7	8.5%	-5.0%
> COc1cc(CC(=O)N2CCN(S(=O)(=O)c3ccc(C)cc3)CC2)cc(OC)c1OC
→ .	-21.5%	-3.0%	.	.	-2.8%	.
> CN(CC(=O)N1CC=C(c2ccccc2)CC1)S(=O)(=O)c1cnc[nH]1
→ -6.5	45.8%	0.2%	1.5	-2.2	5.5%	15.1%
> O=C(Nc1nc(-c2ccccc2)cs1)C1CCCN(S(=O)(=O)c2cccc([N+](=O)[O-])c2)C1 (stereo not given)
→ 9.3	-31.6%[inhibitor]	0.5%	3.7	-16.0	-0.4%	10.9%
> CCOc1ccc(N2CC(C(=O)Nc3cccc(C(=O)NC4CC4)c3)CC2=O)cc1 (stereo not given)
→ 0.9	23.9%	1.2%	.	5.7	3.0%	.
> CN(C)S(=O)(=O)c1ccc(N2CCCC2)c(C(=O)Nc2ccccc2OC(F)F)c1
→ -10.0	?	.	-1.2	-7.3	2.6%	1.1%
> Cc1cc(C)c2nc3c(c(C(=O)O)c2c1)CCC3
→ 5.9	-10.8%	-17.4%	2.5	15.1	6.9%	-16.2%
> CCOc1ccc(NC(=O)CCCN2C(=S)NC(C)(C)CC2C)cc1 (stereo not given)
→ 3.2	6.7%[15.4 µM]	28.2µM*	7.7	-2.4	9.6%	14.6%
> Cc1cccc2cc(CN(Cc3ccco3)C(=O)Nc3cccc(C#N)c3)c(Cl)nc12
→ -5.8	-3.2%	-10.9%	6.5	8.0	-0.9%	18.8%
> O=S(=O)(c1ccc2ccccc2c1)N(CC(O)COCc1ccco1)c1ccccc1 (stereo not given)
→ 0.8	-8.8%	0.7%	-0.1	-21.4	-19.4%	2.9%

Every second line gives: TRPV1 potentiator	gsp agonist	ClpP mod	Menin-MLL FL inh	CtBP-E1A blk	gsp antag	Sfp PPTase inh
> CCn1c(SCC(=O)N/N=C/C(C)=C\c2ccco2)nnc1-c1ccccc1
→ ?	3.4%	.	14.7	4.5	-3.9%	-29.7%
> C=CC#CC[N+]1(CC#Cc2ccccc2)CCOCC1
→ -7.5	8.9%	3.6%	-19.7	-14.2	0.9%	?
> Cn1ncc2c(Nc3cccc(C(=O)O)c3)ncnc21
→ 13.8	?	-0.1%	9.8	2.2	9.9%	2.8%
> N#Cc1nc(-c2ccco2)oc1N1CCC(C(N)=O)CC1
→ 28.5	6.8%	0.6%	0.2	11.4	-0.2%	10.5%

Single records, from the list above. Values in the order: TRPV1 potentiator	gsp agonist	ClpP mod	Menin-MLL FL inh	CtBP-E1A blk	gsp antag	Sfp PPTase inh
`N#Cc1nc(-c2ccco2)oc1N1CCC(C(N)=O)CC1` reads 28.5	6.8%	0.6%	0.2	11.4	-0.2%	10.5%
`Cn1ncc2c(Nc3cccc(C(=O)O)c3)ncnc21` reads 13.8	?	-0.1%	9.8	2.2	9.9%	2.8%
`C=CC#CC[N+]1(CC#Cc2ccccc2)CCOCC1` reads -7.5	8.9%	3.6%	-19.7	-14.2	0.9%	?
